Compound activity from PubChem.
Vaccinia pol inh = vaccinia E9 polymerase processive synthesis inhibitors, primary screen, biochemical, absorbance; 0.94% of 46,000 active; in vitro processive DNA synthesis, absorbance read-out; hits give low values; some inactives read as strong as hits; normalized absorbance, % (concentration not given with the values); Vaccinia virus DNA polymerase (E9) processive complex; AID 493162, 2011;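 active = replicate mean up to 90% and picked by the depositor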;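 also: 100% = median of the test wells of a plate; 100 nL library stock went into each well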
* hit, by the source's call; & = joins results of further samples. The list is partial; count on the stated rates, not on these rows.

SMILES	Vaccinia pol inh
O=C(Nc1nccs1)c1ccc(S(=O)(=O)N2CCCCC2)cc1	93.1
O=C(c1cn(-c2ccccc2)nc1-c1ccncc1)N1CCCCC1	90.5
Cc1cc(/C=N/O)nc(=O)[nH]1	99.8
CC1(C)C=C(c2c[nH]c(C3=CC(C)(C)NC(C)(C)C3)c2)CC(C)(C)N1	104.9
N#CC1=C(N)Sc2oc(-c3ccccc3)cc(=O)c2C1c1ccccc1Cl (centres undefined)	99.8
COc1ccc(CNC(Cc2ccccc2)c2ccccc2)c(OC)c1C (centres undefined)	102.3
COC(=O)Nc1c(-c2ccccc2)nc2ccccn12	103.2
NC(=O)C[n+]1ccn2c(NC3CCCCC3)c(-c3ccccc3O)nc2c1	96.7
N#CCCn1c(=S)n(CCC#N)c2ccccc21	106.2
Cc1ccccc1C(=O)Nc1sc2c(c1C(N)=O)CCC2	119.7
COc1ccc2oc(=N)c(-c3nc4ccccc4[nH]3)cc2c1	100.4
Cc1nc(SC(C)C(=O)O)[nH]c(=O)c1Oc1ccccc1 (centres undefined)	100.4
Nc1nccc(-c2ccc(NC(=O)Nc3ccccc3)cc2)n1	99.5
COc1ccc2c(=O)c(-c3ccc(Br)cc3)coc2c1	102.9
CC(C)(C)N=Cc1nc(-c2ccccc2)oc1O	90.1
O=C(O)CCCN1C(=O)S/C(=C\C=C\c2ccccc2)C1=O	86.2
COC(=O)Nc1nc2ccc(C(=O)c3ccccc3)cc2[nH]1	100.4&101.0
C1CCC(OCC2CCCN3CCCCC23)CC1 (centres undefined)	96.1
Cc1ccc2oc(-c3ccc(Cl)cc3)cc(=O)c2c1	108.1
Cc1ccc(C)n1-c1ccc(-c2ccn[nH]2)cc1	108.4
C=CCN1C(=O)/C(=C\c2ccc(O)c(OC)c2)C(=O)NC1=S	99.9
O=CNC(=O)c1ccccc1C(=O)O	100.1
C=CCN1C(=O)NC(=O)/C(=C\c2cn(Cc3ccccc3)c3ccccc23)C1=O	99.8
COc1cc(C(=O)Oc2ccc3c(c2)OCC3=O)cc(OC)c1OC	100.1
CCOc1cc(CNc2ccc(N3CCOCC3)cc2)ccc1OCc1ccccc1	101.2

Additional compounds
SMILES	Vaccinia pol inh
C/C(=N\N1CCN(C2c3ccccc3-c3ccccc32)CC1)c1cccnc1	99.5
Cn1nc(C(=O)NCCN(Cc2ccco2)C2CCCC2)c2c1-c1ccccc1OC2	98.9
COC(=O)C1CNc2ccccc2C1=O (centres undefined)	100.6
CS(=O)(=O)c1nnnn1-c1ccc2c(c1)OCO2	100.3
O=C(CCCc1ccccc1)OCn1nnc2ccccc2c1=O	103.5
O=C(Nc1ccc(F)cc1F)Nc1noc2c1COc1ccccc1-2	93.0
CSc1cccc(NC(=S)NN(C)C)c1	100.0
CCOC(=O)C1(O)c2ccccc2NC(=O)N1C (centres undefined)	100.1
N#CC1(P(=S)(c2ccccc2)c2ccccc2)CCCC1	100.1
CCCc1c(OCCCCc2nn[nH]n2)ccc(C(C)=O)c1O	99.7
Cc1ccccc1CS(=O)(=O)c1c[nH]c2ccccc12	92.2
CCOC(=O)CCSc1ccccn1	99.9
O=c1c(-c2ccc3c(c2)OCCO3)c(C(F)(F)F)oc2cc(O)ccc12	102.5
Cc1[nH]c(=O)n(C(C)(C)C)c(=O)c1C	98.9
CC(C)(C)n1ncc2c(=O)n(Cc3cccc4ccccc34)cnc21	101.8
O=C(NC1CC1)c1n[nH]c(=O)c2ccccc12	101.6
Cc1sc(N)nc1C12CC3CC(CC(C3)C1)C2	98.6
COc1cc2cc(=O)[nH]c(C)c2cc1OC	97.1
CCCNC(=O)OCN1C(=O)c2ccc(N)cc2C1=O	98.8
O=C(Nc1ccccc1)c1cc2ccccc2c(=O)o1	100.9
Cc1ccc(C)c(NC(=O)c2cc(C)nn2-c2ccccc2)c1	82.9
COc1ccccc1/C=C/C=N/n1c(C)nnc1C	96.1
COc1ccc(Cc2nnc(-c3ccc(C)cc3)o2)cc1OC	101.4
c1ccc(OCCSc2nnc3c4ccccc4nc(-c4ccccc4)n23)cc1	99.7
CC(C)C1OC(c2cccc(NC(=O)c3ccc(F)cc3)c2)OCC1(C)C (centres undefined)	100.7

(list continues)
SMILES	Vaccinia pol inh
CC1CCN(C(=O)c2cccc3c2SCCC3=O)CC1	105.0
C[n+]1cc2c3c(ccc2c2ccc4cc5c(cc4c21)OCO5)OCO3	93.4
CC1CCC(C(C)C)C(OCC(O)CN2CCN(Cc3ccccc3)CC2)C1 (centres undefined)	100.4
CN1CCN(c2ncnc3c2cnn3Cc2ccc(Cl)cc2)CC1	105.0
Cc1c(Br)cc(C(=O)NC(C)C)c(C)c1C	99.7
COc1ccc(-c2cc(=Nc3ccc(O)cc3)c3cc(C)ccc3o2)cc1	54.5*
O=C(CCCn1sc2ccccc2c1=O)N1CCCC1	84.0
CCCCn1c2nc3ccccc3nc2c2c(N)ncnc21	99.8
CCCN(C(=O)c1cc2cc3ccc(OC)cc3nc2s1)c1ccc(CC)cc1	105.2
O=C(CCc1nc2ccccc2s1)OCc1ccccc1	105.1
N#CC1(C#N)C2CCCCC23OC(=N)C1(C#N)C(Cc1ccccc1)O3 (centres undefined)	100.0
C=CCC1(CC=C)CCCCN1	100.6
Cc1cccc(NC(=O)C23CCC(C)(C(=O)O2)C3(C)C)c1 (centres undefined)	108.0
Cn1ccnc1SCC(=O)Nc1ccc(C#N)cc1	102.4
COc1ccc(Br)cc1C1SCCN1S(=O)(=O)c1ccc(Cl)c(Cl)c1 (centres undefined)	100.2
N#CC(C#N)=C1C=C(c2ccccc2)Sc2ccccc21	100.0
Cc1ccccc1NC(=O)c1cnn2c(C(F)(F)F)cc(-c3ccco3)nc12	92.0
O=C(CS(=O)(=O)c1cn(Cc2cccc(F)c2)c2ccccc12)NC1CCCCC1	104.7
Cc1c(C(=O)N(C)C2CCCCC2)sc2nc(-c3ccccc3)cn12	100.0
COc1ccc(C(=O)N(c2ccc(OC)cc2)S(=O)(=O)c2ccc(C)cc2)cc1	100.4
c1ccc2oc(SCc3cn4ccsc4n3)nc2c1	100.7
CC(=O)NC1C(=O)Nc2ccc(F)cc21 (centres undefined)	99.8
Cc1ccc(NC(=O)CC(NCC2CCCO2)C(=O)O)cc1 (centres undefined)	98.1
O=C(Nc1ccc(Cl)cc1)OCc1cn(-c2ccccc2)nn1	102.9
O=C(Oc1c(Br)cc(Br)c2cccnc12)N1CCOCC1	99.5

(listing goes on)
SMILES	Vaccinia pol inh
CCCNC(=O)Cc1c(C)nc2cc(-c3ccccc3)nn2c1C	96.8
Cc1cc(C)n(C(=O)Cc2cccs2)n1	101.6
O=C(O)/C(=C/c1ccc(F)cc1)c1cccs1	97.3
CCNS(=O)(=O)c1cccc2c(N)cccc12	104.8
Cc1ccccc1-c1ncc(-c2ccc(Br)cc2)o1	98.1
Nc1ncc(Cc2cccc(Cl)c2)s1	96.3
O=C(OC1CS(=O)(=O)CC1OC(=O)c1ccccc1)c1ccccc1 (centres undefined)	100.2
O=C(Nc1nc(-c2ccc3c(c2)OCO3)cs1)C1CC1	99.7
O=C(O)c1ccc(NCc2cccnc2)cc1	106.7
O=C(NO)c1sc2ccccc2c1Cl	100.6
N#CC1=C(N)N(c2ccccc2)C2=C(C(=O)CCC2)C1c1ccccc1 (centres undefined)	99.8
O=C1CCCC(Cn2cncn2)C1 (centres undefined)	99.9
CCOC(=O)C1=C(N)Oc2c(c(=O)oc3ccccc23)C12C(=O)N(CC(=O)OC)c1ccccc12 (centres undefined)	100.1
OC1(c2ccc(Br)cc2)CN(c2ccccc2)C2=[N+]1CCCS2 (centres undefined)	101.9
Cc1ccc(/C=C2/C(=O)N=C(N)N2C)s1	99.9
CCN(CC)S(=O)(=O)c1ccc(C(=O)Nc2cccc(C)c2)cc1	102.9
CC(C)(C)c1nc2c(o1)NC(N)=C(C(N)=O)C2c1ccc(OCC#N)cc1 (centres undefined)	101.9
CCCc1noc2c1/C(=N\O)CC(C)(C)C2	108.7
NC(N)=Nc1nc(=O)c2ccccc2s1	100.2
O=S(=O)(c1ccc(Cl)cc1)N1CCCC1c1cccnc1 (centres undefined)	84.6
O=C1Nc2ccccc2C1=NC1CCS(=O)(=O)C1 (centres undefined)	100.3
CCN(CC)S(=O)(=O)c1ccc(Br)cc1	102.2
O=C(ON1C(=O)c2ccccc2C1=O)c1ccco1	100.0
CCNc1nc(NCC)nc(Oc2ccc(=O)[nH]n2)n1	99.9
CC(=O)[C@@]1(O)CCC2C3C[C@H](C)C4=CC(=O)C=CC4(C)[C@@]3(F)[C@@H](O)C[C@@]21C (some centres undefined)	93.6

18 of the compounds above, in CSV form.
mol,Vaccinia pol inh
CCCNC(=O)Cc1c(C)nc2cc(-c3ccccc3)nn2c1C,96.8
Cc1cc(C)n(C(=O)Cc2cccs2)n1,101.6
O=C(O)/C(=C/c1ccc(F)cc1)c1cccs1,97.3
CCNS(=O)(=O)c1cccc2c(N)cccc12,104.8
Cc1ccccc1-c1ncc(-c2ccc(Br)cc2)o1,98.1
Nc1ncc(Cc2cccc(Cl)c2)s1,96.3
O=C(OC1CS(=O)(=O)CC1OC(=O)c1ccccc1)c1ccccc1 (centres undefined),100.2
O=C(Nc1nc(-c2ccc3c(c2)OCO3)cs1)C1CC1,99.7
O=C(O)c1ccc(NCc2cccnc2)cc1,106.7
O=C(NO)c1sc2ccccc2c1Cl,100.6
N#CC1=C(N)N(c2ccccc2)C2=C(C(=O)CCC2)C1c1ccccc1 (centres undefined),99.8
O=C1CCCC(Cn2cncn2)C1 (centres undefined),99.9
CCOC(=O)C1=C(N)Oc2c(c(=O)oc3ccccc23)C12C(=O)N(CC(=O)OC)c1ccccc12 (centres undefined),100.1
OC1(c2ccc(Br)cc2)CN(c2ccccc2)C2=[N+]1CCCS2 (centres undefined),101.9
Cc1ccc(/C=C2/C(=O)N=C(N)N2C)s1,99.9
CCN(CC)S(=O)(=O)c1ccc(C(=O)Nc2cccc(C)c2)cc1,102.9
CC(C)(C)c1nc2c(o1)NC(N)=C(C(N)=O)C2c1ccc(OCC#N)cc1 (centres undefined),101.9
CCCc1noc2c1/C(=N\O)CC(C)(C)C2,108.7

(more compounds)
SMILES	Vaccinia pol inh
OCC12CC3CC(C1)CC(CO)(C3)C2	99.4
COCCn1c(SC)nnc1-c1c[nH]c2ccccc12	100.7
COc1ccc(C2CC(c3cc(Cl)ccc3O)=NN2)cc1OC (centres undefined)	100.2
CC(C)Sc1nc2ccccc2n2cnnc12	100.0
CCNC(=O)Nc1nc2ccccc2s1	96.9
N#Cc1c(NC(=O)CSc2ccccn2)sc2c1CCCC2	99.7
O=C(O)CCOc1cccc(Br)c1	94.3
O=C(COC(=O)c1cccnc1Cl)Nc1cccc(Br)c1	100.9
COc1ccccc1CC(=O)NCc1nn(-c2ccccc2)nc1C	100.4
COc1ccc(-c2cc(C(F)(F)F)nc(SCCC(=O)NC(C)C)n2)cc1	98.9
CCOc1ccc(S(=O)(=O)Nc2cc(Cl)c(O)c3ccccc23)cc1	96.9
CCOC(=O)c1nnc(Cc2ccccc2OC)o1	104.7
COc1ccc(N2CCN(CCNC(=O)c3nnc(Cc4ccccc4Cl)o3)CC2)cc1	100.1
Cn1c(=O)c2c(ncn2C)n(C)c1=O	100.1
CCC(Sc1ncc(S(=O)(=O)c2ccc(C)c(C)c2)c(=O)[nH]1)C(=O)Nc1ccc(OC)cc1 (centres undefined)	78.1
COc1ccc(CSc2nnc(CSc3cccs3)n2C)cc1	99.5
CCN(CC)C(=O)c1cccc(Cl)c1	99.9
C=CCn1c(C(C)NC(C)=O)nc2ccccc21 (centres undefined)	88.3
O=c1/c(=C/c2ccco2)sc2nc3ccccc3n12	93.3
FC(F)(F)c1cc(C(F)(F)F)c2ccc(Cl)nc2n1	92.4
Clc1ccc(CN2CCNCC2)cc1	99.4
CN(Cc1ccccc1)C(=O)COC(=O)c1sc2ccccc2c1Cl	102.6
O=C(O)c1cccc(NC(=O)c2nccnc2C(=O)O)c1	107.7
CNC(=O)N1CCC(C(=O)c2c(C)c(C)c(C)c(C)c2C)CC1	94.1
CC1CCCN(C(=O)CSCC(=O)Nc2nc(-c3cccs3)cs2)C1 (centres undefined)	101.2

(listing goes on)
SMILES	Vaccinia pol inh
Cc1cc(C)c2nc(NC(=O)CN3C(=O)CCC3=O)sc2c1	100.6
Cc1ccccc1S(=O)(=O)N1CCOCC1	94.3
O=C(COC(=O)c1ccccc1)Nc1ncc(Cl)cc1Cl	98.6
O=C(COC(=O)c1ccccc1)NCc1ccco1	91.9
COc1cc(C(=O)NCc2ccc3c(c2)cc(C)n3C)cc(OC)c1OC	99.7
Cc1cccc(NC(=O)Cn2c(=O)oc3ccccc32)c1	100.2
Cc1cccc(OCC(=O)Nc2ccc3nc(N4CCCCC4)cc(C)c3c2)c1	105.0
CC(=O)NCc1nc2ccccc2n1C	101.6
CC1CN(CN2C(=O)c3ccccc3C2=O)CC(C)O1 (centres undefined)	99.4
O=C(c1ccccc1)c1ccc2nc(Cl)c3nncn3c2c1	102.7
CCOC(=O)N1CCC(NC(=O)c2ccc(CS(=O)(=O)c3ccc(OC)cc3)o2)CC1	93.5
CC(C)(C)C1CCc2c(sc3nc(-c4cccs4)oc(=O)c23)C1 (centres undefined)	99.9
CCc1ccc(-c2nn(-c3ccccc3)cc2/C=C\C(=O)O)cc1	87.7
O=C1NC(=O)C(c2ccccc2[N+](=O)[O-])=C1Nc1ccc(O)c(Cl)c1	100.2
COc1ccc(C2(C(F)(F)F)NC(=O)C3=C(CC(C)(C)CC3=O)O2)cc1 (centres undefined)	97.2
O=C(NCCO)c1ccc2c(c1)OCCOCCOCCO2	88.3
CC(=O)Nc1ccc(N(C)S(=O)(=O)c2ccc(C)cc2)cc1	97.7
CN1CC[C@]23c4c5ccc(O)c4O[C@H]2C(=O)CCC3[C@H]1C5 (some centres undefined)	98.9
Cc1nc2ccccc2c(=O)n1NC(=O)/C=C/c1ccccc1	100.1
COc1ccccc1C(=O)NCCOc1ccc(C)c(C)c1	99.9
O=C(CN1CCCC1)Nc1ccc(I)cc1	127.4
Cc1ccc(OCC(=O)NC2CC(C)(C)NC(C)(C)C2)c(C)c1	100.5
CC1Cc2ccccc2N1C(=O)Nc1ccc(Cl)c(Cl)c1 (centres undefined)	100.5
Cc1ccc2nc(N3CCN(c4cccc(C)c4C)CC3)c(-n3nc(C)cc3C)nc2c1	105.0
COc1ccccc1OCC(=O)Nc1ncc(Cc2ccc(F)cc2)s1	99.8
